HIV Env fusion: HIV envelope-mediated fusion inhibition | HeLa-JRFL Env/CEM21 cell fusion, luciferase | inhibition, % at 12.3 µM | 1.1% of 360,000 active | AID 651610;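 active means mean replicate inhibition score of at least 50 and every replicate individually at or above 50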;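 further: 0% = plate neutral controls and 100% = maraviroc near 300 nM; one replicate is shown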
UUG fidelity: alters start codon recognition fidelity in yeast. S. cerevisiae UUG-firefly luciferase reporter, luminescence/redox ratio. 0.13% of 350,000 active. activity score, % at 18.7 µM;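 active means replicate mean at a twofold rise or more, about +100% in these data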;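 further: firefly luciferase made from a UUG start codon reports start codon fidelity; reporter light over untreated wells divided by growth signal over untreated wells; some hits fall short of that in this replicate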
Numbers without * were called inactive; [ ] = dose if it differs, or a comment. An excerpt; count on the stated rates, not on these rows.

cpd	SMILES	HIV Env fusion	UUG fidelity
1	NCC[C@H]1CC[C@@H](NC(=O)C2CCCCC2)[C@@H](CO)O1	-20.2[16.7 µM]	3.8
2	C[C@H](CO)N1C[C@H](C)[C@H](CN(C)C(=O)Nc2ccc3c(c2)OCO3)Oc2cc(C#Cc3cccnc3)ccc2S1(=O)=O	-1.9[16.7 µM]	13.4
3	CN1CCN(C(=O)C[C@@H]2CC[C@@H](NC(=O)Cc3ccccn3)[C@@H](CO)O2)CC1	-4.9[16.7 µM]	-6.1
4	CCC(=O)N[C@H]1C=C[C@@H](CC(=O)NCc2ccc(OC)cc2)O[C@H]1CO	-14.7[16.7 µM]	-1.9
5	CC(C)C#Cc1ccc2c(c1)O[C@H](CN(C)CC1CCOCC1)[C@H](C)CN([C@H](C)CO)S2(=O)=O	27.9[16.7 µM]	25.6
6	C[C@H]1CN([C@@H](C)CO)S(=O)(=O)c2ccc(-c3ccccc3)cc2O[C@H]1CN(C)C(=O)CC1CC1	-10.8[16.7 µM]	5.2
7	COc1cccc(NC(=O)N[C@@H]2CC[C@@H](CC(=O)Nc3ccccc3)O[C@H]2CO)c1	-12.0[16.7 µM]	-2.8
8	C[C@@H]1CN([C@@H](C)CO)C(=O)c2cc(NC(=O)Nc3ccc(C(F)(F)F)cc3)ccc2O[C@@H](C)CCCCO[C@@H]1CN(C)C(=O)CCCN(C)C	-0.4[16.7 µM]	12.0
9	CCCNC(=O)N[C@H]1CC[C@H](CCn2cc(C3CCCCC3)nn2)O[C@@H]1CO	21.8[16.7 µM]	-5.2
10	C[C@H](CO)N1C[C@H](C)[C@H](CN(C)Cc2ccc(Cl)c(Cl)c2)OCCCC[C@H](C)Oc2ccc(NC(=O)C3CCCCC3)cc2C1=O	-6.7[16.7 µM]	8.2
11	C[C@H]1CN([C@@H](C)CO)C(=O)c2cc(-c3ccc(C(=O)N(C)C)cc3)cnc2O[C@H]1CN(C)C	-18.1[16.7 µM]	-2.2
12	C[C@@H]1CN([C@H](C)CO)C(=O)c2cc(NC(=O)Nc3ccccc3)ccc2O[C@@H]1CN(C)Cc1ccc(C(=O)Nc2ccccc2N)cc1	-20.4[16.7 µM]	0.8

2 entries from above, with two lines to a compound.
The line under a structure holds: HIV Env fusion, UUG fidelity
8) C[C@@H]1CN([C@@H](C)CO)C(=O)c2cc(NC(=O)Nc3ccc(C(F)(F)F)cc3)ccc2O[C@@H](C)CCCCO[C@@H]1CN(C)C(=O)CCCN(C)C
    -0.4[16.7 µM], 12.0
9) CCCNC(=O)N[C@H]1CC[C@H](CCn2cc(C3CCCCC3)nn2)O[C@@H]1CO
    21.8[16.7 µM], -5.2

Remaining list, next part
cpd	SMILES	HIV Env fusion	UUG fidelity
13	Cc1ccc(S(=O)(=O)Nc2ccc3c(c2)C(=O)N(C)[C@H]2CC[C@H](CC(=O)O)O[C@@H]2CO3)cc1	-1.4[16.7 µM]	5.3
14	C[C@@H]1CN([C@@H](C)CO)C(=O)c2cccc(NS(=O)(=O)c3ccccc3)c2O[C@@H]1CN(C)Cc1ccncc1	-17.2[16.7 µM]	-10.2
15	COc1cccc(CNC(=O)C[C@H]2C=C[C@H](NC(C)=O)[C@H](CO)O2)c1	8.4[16.7 µM]	-5.2
16	COCC(=O)N(C)C[C@H]1Oc2cc(-c3ccccc3)ccc2S(=O)(=O)N([C@H](C)CO)C[C@@H]1C	-6.6[16.7 µM]	-2.6
17	COc1ccc(S(=O)(=O)N[C@@H]2C=C[C@@H](CC(=O)N3CCN(c4ccccc4)CC3)O[C@H]2CO)cc1	4.1[16.7 µM]	6.7
18	CC(C)NC(=O)N[C@@H]1CC[C@H](CCNS(=O)(=O)c2ccc(F)cc2)O[C@@H]1CO	11.9[16.7 µM]	4.4
19	CCC(=O)N[C@@H]1CC[C@@H](CC(=O)NCCN2CCCCC2)O[C@H]1CO	-7.0[16.7 µM]	7.3
20	C[C@@H]1CN([C@@H](C)CO)C(=O)c2cc(NS(=O)(=O)c3cccs3)ccc2O[C@H]1CN(C)S(=O)(=O)c1ccc(F)cc1	-10.2[16.7 µM]	4.0
21	C[C@@H]1CCCCO[C@H](CN(C)C(=O)Nc2ccc3c(c2)OCO3)[C@@H](C)CN([C@@H](C)CO)C(=O)c2cc(NC(=O)Cc3ccccc3)ccc2O1	-5.0[16.7 µM]	-3.5
22	C[C@@H]1CN([C@H](C)CO)C(=O)c2cc(NS(=O)(=O)c3cccs3)ccc2O[C@@H](C)CCCCO[C@@H]1CN(C)Cc1ccc2c(c1)OCO2	6.4[16.7 µM]	31.7
23	O=S(=O)(N[C@H]1CC[C@@H](CCn2cc(-c3cccc(F)c3)nn2)O[C@@H]1CO)c1ccc(F)cc1	22.5[16.7 µM]	-13.9
24	C[C@@H]1CN([C@H](C)CO)C(=O)c2cc(NS(=O)(=O)c3ccccc3)ccc2O[C@H]1CN(C)C(=O)Nc1ccc2c(c1)OCO2	-19.2[16.7 µM]	18.5

Next results.
cpd	SMILES	HIV Env fusion	UUG fidelity
25	C[C@@H]1CN([C@H](C)CO)S(=O)(=O)c2ccc(C3=CCCCC3)cc2O[C@@H]1CN(C)C(=O)C1CC1	25.8[16.7 µM]	9.2
26	COc1ccc(NC(=O)Nc2ccc3c(c2)C(=O)N([C@@H](C)CO)C[C@H](C)[C@@H](CN(C)Cc2ccc4c(c2)OCO4)OCCCC[C@H](C)O3)cc1	13.2[16.7 µM]	15.5
27	CCCNC(=O)Nc1ccc2c(c1)C(=O)N(C)[C@@H]1CC[C@H](CC(=O)NCC3CCCCC3)O[C@H]1CO2	3.9[16.7 µM]	-0.6
28	COc1cccc(S(=O)(=O)N[C@@H]2CC[C@@H](CC(=O)NC3CCC3)O[C@H]2CO)c1	42.4[16.7 µM]	-16.5
29	C[C@H](CO)N1C[C@H](C)[C@H](CN(C)C(=O)NC2CCCCC2)Oc2ccc(NC(=O)NC3CCCCC3)cc2C1=O	-18.6[16.7 µM]	-3.1
30	C[C@@H]1CN([C@H](C)CO)C(=O)Cc2cc(NC(=O)Nc3cccc4ccccc34)ccc2O[C@@H]1CN(C)S(=O)(=O)c1ccc(F)cc1	7.8[16.7 µM]	-8.1
31	O=C(C[C@@H]1CC[C@@H]2[C@H](COC[C@H](O)CN2C(=O)c2ccncc2)O1)NCc1cccc(F)c1	16.7[16.7 µM]	-8.4
32	C[C@H]1CN([C@@H](C)CO)S(=O)(=O)c2ccc(/C=C/c3ccccc3)cc2O[C@H]1CN(C)Cc1ccc(C(=O)O)cc1	10.3[16.7 µM]	-2.0
33	C[C@H]1CN([C@@H](C)CO)C(=O)c2cc(NC(=O)Nc3ccc4c(c3)OCO4)ccc2O[C@@H]1CN(C)Cc1ccc(C(F)(F)F)cc1	-0.3[16.7 µM]	8.3
34	C[C@@H](NC(=O)C[C@@H]1C=C[C@@H](NC(=O)CN2CCOCC2)[C@H](CO)O1)c1ccccc1	17.2[16.7 µM]	-13.8
35	C[C@@H]1CN([C@@H](C)CO)C(=O)c2cc(NC(=O)Nc3ccccc3)ccc2O[C@@H](C)CCCCO[C@@H]1CN(C)C(=O)NC1CCCCC1	-24.2[16.7 µM]	-4.0
36	Cc1noc(C)c1NC(=O)NCC[C@H]1CC[C@H](NC(=O)Nc2cccc(F)c2)[C@@H](CO)O1	-3.2[16.7 µM]	3.9

Additional compounds
cpd	SMILES	HIV Env fusion	UUG fidelity
37	O=C(N[C@@H]1CC[C@H](CCNS(=O)(=O)c2cccc(Cl)c2)O[C@H]1CO)c1ccc(F)cc1	9.8[16.7 µM]	9.5
38	CC(=O)N(C)C[C@H]1Oc2ncc(C#CCC3CCCC3)cc2C(=O)N([C@@H](C)CO)C[C@@H]1C	-12.3[16.7 µM]	3.8
39	CN1CCN(C(=O)C[C@H]2C[C@H]3c4cc(NC(=O)NC5CCCC5)ccc4O[C@H]3[C@H](CO)O2)CC1	11.0[16.7 µM]	-8.9
40	COc1ccc(NC(=O)N(C)C[C@H]2Oc3c(NC(=O)Nc4ccc(F)cc4)cccc3C(=O)N([C@H](C)CO)C[C@@H]2C)cc1	8.6[16.7 µM]	17.3
41	N#C[C@@H]1[C@H](c2ccc(C3=CCCCC3)cc2)[C@H](CO)N1C(=O)C1CCOCC1	11.7[16.7 µM]	7.9
42	CC(=O)N(C)C[C@@H]1Oc2ncc(C#CC3(O)CCCC3)cc2C(=O)N([C@@H](C)CO)C[C@H]1C	-11.0[16.7 µM]	7.0
43	CO[C@H]1CN(C)C(=O)c2cc(NC(=O)c3cnccn3)ccc2OC[C@H](C)N(C(=O)C2CC2)C[C@H]1C	1.6[16.7 µM]	16.0
44	O=C(N[C@H]1C=C[C@@H](CC(=O)N2CCc3ccccc3C2)O[C@H]1CO)C1CCC1	-2.2[16.7 µM]	3.9
45	C[C@@H]1CCCCO[C@H](CN(C)Cc2ccc(C(=O)O)cc2)[C@@H](C)CN([C@H](C)CO)C(=O)c2cc(NC(=O)Nc3ccccc3)ccc2O1	-16.1[16.7 µM]	-16.2
46	C[C@@H]1CN([C@H](C)CO)S(=O)(=O)c2ccc(-c3cncnc3)cc2O[C@@H]1CN(C)C(=O)C1CC1	2.0[16.7 µM]	-6.1
47	C[C@@H]1CN([C@@H](C)CO)S(=O)(=O)c2ccc(-c3ccc(C(=O)N(C)C)cc3)cc2O[C@@H]1CN(C)Cc1ccc2c(c1)OCO2	-37.3[16.7 µM]	2.1
48	C[C@H](CO)N1C[C@H](C)[C@H](CN(C)C(=O)Nc2ccc(F)cc2)OCCCC[C@H](C)Oc2ccc(NC(=O)Nc3ccc(F)cc3)cc2C1=O	-20.2[16.7 µM]	14.0

Carrying on.
cpd	SMILES	HIV Env fusion	UUG fidelity
49	CC(C)NC(=O)N(C)C[C@@H]1Oc2ccc(NC(=O)C3CCCCC3)cc2C(=O)N([C@@H](C)CO)C[C@H]1C	-7.9[16.7 µM]	1.6
50	CNC[C@H]1OCCCC[C@@H](C)Oc2ccc(NS(=O)(=O)c3ccc(OC)cc3)cc2C(=O)N([C@H](C)CO)C[C@H]1C	13.3[16.7 µM]	22.9
51	COc1ccc(S(=O)(=O)N[C@H]2CC[C@H](CC(=O)O)O[C@@H]2CO)cc1	32.5[16.7 µM]	-14.4
52	CN(C)CCCNC(=O)C[C@H]1C=C[C@H](NC(=O)Cc2cccnc2)[C@H](CO)O1	-23.8[16.7 µM]	-16.3
53	CC(=O)N(C)C[C@@H]1Oc2cc(C#CC3(O)CCCC3)ccc2S(=O)(=O)N([C@@H](C)CO)C[C@@H]1C	-9.1[16.7 µM]	-2.4
54	C[C@@H](NC(=O)C[C@@H]1C=C[C@H](NC(=O)c2cccnc2)[C@@H](CO)O1)c1ccccc1	6.2[16.7 µM]	-18.7
55	C[C@H](O)C#Cc1cnc2c(c1)C(=O)N([C@H](C)CO)C[C@@H](C)[C@H](CN(C)Cc1ccccn1)O2	0.1[16.7 µM]	-5.3
56	COc1ccc(NC(=O)Nc2ccc3c(c2)CC(=O)N([C@@H](C)CO)C[C@@H](C)[C@H](CN(C)Cc2ccc(C(=O)O)cc2)O3)cc1	-19.1[16.7 µM]	5.8
57	C[C@H]1CN([C@@H](C)CO)C(=O)Cc2cc(NC(=O)Nc3ccc4c(c3)OCO4)ccc2O[C@@H]1CN(C)Cc1ccc(-c2ccccc2)cc1	44.1[16.7 µM]	1.5
58	Cc1noc(C)c1NC(=O)N(C)C[C@@H]1Oc2ccc(NC(=O)Nc3ccc(C(F)(F)F)cc3)cc2CC(=O)N([C@H](C)CO)C[C@H]1C	-11.0[16.7 µM]	3.2
59	C[C@@H]1CN([C@H](C)CO)S(=O)(=O)c2ccc(/C=C/c3ccccc3)cc2O[C@@H]1CN(C)C(=O)Nc1cc(F)ccc1F	-1.1[16.7 µM]	9.8
60	C[C@H](CO)N1C[C@H](C)[C@H](CN(C)CC2CC2)Oc2ccc(NC(=O)c3ccncc3)cc2CC1=O	-2.9[16.7 µM]	-9.2

The list continues:
cpd	SMILES	HIV Env fusion	UUG fidelity
61	C[C@@H]1CCCCO[C@@H](CN(C)Cc2ccncc2)[C@H](C)CN([C@@H](C)CO)C(=O)c2cc(NC(=O)NC3CCCCC3)ccc2O1	-2.3[16.7 µM]	-3.0
62	C[C@H](CO)N1C[C@H](C)[C@@H](CN(C)C(=O)C2CC2)Oc2ncc(C#CCc3ccccc3)cc2C1=O	-10.8[16.7 µM]	-4.6
63	C[C@@H]1CN([C@H](C)CO)C(=O)c2cccc(NC(=O)c3nc4ccccc4s3)c2O[C@@H]1CN(C)S(=O)(=O)c1ccccc1	-9.1[16.7 µM]	-1.6
64	COc1cccc(COC(=O)C2CC(=O)N(Cc3ccccc3)C2)c1OC (stereo unspecified)	-10.3	6.2
65	C[C@H](O)C#Cc1ccc2c(c1)O[C@@H](CN(C)C)[C@@H](C)CN([C@H](C)CO)S2(=O)=O	10.4[16.7 µM]	-20.6
66	Cc1noc(C)c1NC(=O)Nc1ccc2c(c1)C(=O)N([C@@H](C)CO)C[C@H](C)[C@@H](CN(C)C(=O)C1CCCCC1)OCCCC[C@@H](C)O2	21.3[16.7 µM]	9.2
67	C[C@@H]1CCCCO[C@H](CN(C)S(=O)(=O)c2ccc(Cl)cc2)[C@@H](C)CN([C@@H](C)CO)C(=O)c2cc(NS(C)(=O)=O)ccc2O1	-26.8[16.7 µM]	10.5
68	C[C@@H]1CN([C@H](C)CO)C(=O)c2cc(NC(=O)Cc3ccccc3)ccc2O[C@H]1CN(C)Cc1ccc(C(=O)Nc2ccccc2N)cc1	20.1[16.7 µM]	5.0

Another view of some results above.
cpd | HIV Env fusion | UUG fidelity | compound
61 | -2.3[16.7 µM] | -3.0 | C[C@@H]1CCCCO[C@@H](CN(C)Cc2ccncc2)[C@H](C)CN([C@@H](C)CO)C(=O)c2cc(NC(=O)NC3CCCCC3)ccc2O1
62 | -10.8[16.7 µM] | -4.6 | C[C@H](CO)N1C[C@H](C)[C@@H](CN(C)C(=O)C2CC2)Oc2ncc(C#CCc3ccccc3)cc2C1=O
63 | -9.1[16.7 µM] | -1.6 | C[C@@H]1CN([C@H](C)CO)C(=O)c2cccc(NC(=O)c3nc4ccccc4s3)c2O[C@@H]1CN(C)S(=O)(=O)c1ccccc1
64 | -10.3 | 6.2 | COc1cccc(COC(=O)C2CC(=O)N(Cc3ccccc3)C2)c1OC (stereo unspecified)

From PubChem
